High-throughput results: PubChem BioAssay, National Center for Advancing Translational Sciences (NCATS)
VDR inh = Inhibitors of the vitamin D receptor (VDR): qHTS; Vitamin D3 receptor (Homo sapiens), P11473; VDR-SRC2-3 peptide fluorescence polarization, 2 h; Potency, µM, for inactives: max response, negative = inhibition, usual class: inhibitors; hit rate 0.93% among 400,000; AID 504847, 2011; active = well fitted inhibition curve with a large enough effect; inconclusive = small, poorly fitted or top-dose-only effect, or another doubt; inactive = no such curve, though single readings can be large or run the other way; note: series mostly up to about 120 µM
Target sequence (P11473 whole entry, looked up): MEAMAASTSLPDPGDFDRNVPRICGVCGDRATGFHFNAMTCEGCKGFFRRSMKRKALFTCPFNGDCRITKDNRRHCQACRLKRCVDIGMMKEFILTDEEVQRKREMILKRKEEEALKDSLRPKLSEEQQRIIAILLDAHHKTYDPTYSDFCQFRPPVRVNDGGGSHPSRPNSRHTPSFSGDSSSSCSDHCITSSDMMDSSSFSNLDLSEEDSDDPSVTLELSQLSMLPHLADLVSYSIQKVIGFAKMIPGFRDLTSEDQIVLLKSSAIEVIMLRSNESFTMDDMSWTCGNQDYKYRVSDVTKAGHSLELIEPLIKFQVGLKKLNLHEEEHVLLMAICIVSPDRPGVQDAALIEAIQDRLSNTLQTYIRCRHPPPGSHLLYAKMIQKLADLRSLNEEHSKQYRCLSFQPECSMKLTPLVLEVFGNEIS
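VDR–SRC2-3 interaction, FP format. Cmpds 23 nl via pintool, brief spin, 2 h ambient incubation.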
Starred values were filed as active, the others as inactive; ? = inconclusive; & = joins results of further samples. % is set by controls: 0 for no effect and ±100 for the full control effect; potency is the fitted concentration of half-maximal effect. This is a subset. The share of hits here may be higher or lower than overall.

cpd | compound | VDR inh
1 | O=C(CN1CCCN(S(=O)(=O)c2ccc(F)cc2)CC1)Nc1cccc(F)c1 | 1%
2 | Nc1c(C(=O)Nc2ccc(Cl)cc2)oc2ccccc12 | 2%
3 | c1csc(-c2ncc3ccccn23)c1 | 17%
4 | CN(C)CCC1c2ccc(Cl)cc2CCc2cccnc21 (centres undefined) (tested in a mixture with another compound) | 7%
5 | CC(=O)Nc1ccc(NC(=O)c2ccc(-c3ccc([N+](=O)[O-])cc3)o2)cc1 | 19%
6 | C=CCn1c(-c2csc(-c3ccc(OC)c(OC)c3)n2)n[nH]c1=S | 4%
7 | O=c1[nH]c(Cl)nc2c1ncn2C1OC(CO)C(O)C1O (centres undefined) | -4%
8 | O=C(CSc1n[nH]c(-c2ccccc2)n1)Nc1ccc(N2CCOCC2)cc1 | -25%
9 | COc1ccc(C)cc1NC(=O)CCS(=O)(=O)c1ccc2c(c1)CCN2C(C)=O | -1%
10 | O=C(CSCc1nc2ccccc2[nH]1)N1CCN(c2ccc(F)cc2)CC1 | -3%
11 | CN(C)C(=S)Nn1c(-c2ccccc2)nc2ccccc2c1=O | -2%
12 | CC(C)(C)OC(=O)N1CCC(c2c(C(=O)NC3CCCCC3)cnn2-c2cccc(F)c2)CC1 | 5%
13 | COc1ccc(-c2csc(Nc3ccccc3)n2)cc1 | 7%
14 | C=CCOc1ccc(C(c2c(C(=O)O)[nH]c3ccccc23)c2c(C(=O)O)[nH]c3ccccc23)cc1 | -15%
15 | Cc1ccc(CNC(=O)c2ccccc2NS(C)(=O)=O)cc1 | -6%
16 | COc1cc(C(=O)NCC(=O)N/N=C/c2cccnc2)cc(OC)c1OC | 5%
17 | Cc1cc(C)cc(OCC(=O)N2CCC(c3nc4ccccc4o3)CC2)c1 | -1%
18 | COc1ccc(N2C(N)=NC(N)=NC2(C)C)cc1 | -12%
19 | O=C(Cn1cncn1)N/N=C/c1ccc(Cl)cc1 | -2%
20 | CC1CCCN(c2nc(-c3cccnc3)nc3scc(-c4ccccc4)c23)C1 (centres undefined) | -10%
21 | CCN(CC)CCN(C)Cc1nc(C(c2ccccc2)c2ccccc2)no1 | -5%
22 | CCOc1cccc2cc(-c3csc(NC(=O)CCC(=O)N4CCC(C)CC4)n3)c(=O)oc12 | 5%
23 | CC(NC(=O)c1cccs1)C(=O)NC1=NCCS1 (centres undefined) | 3%
24 | CC(Oc1ccc2c3c(c(=O)oc2c1)CCCC3)C(=O)NC1CC(C)(C)NC(C)(C)C1 (centres undefined) | 4%
25 | Cc1ccc(-c2csc(NC(=O)c3cccc(C)c3)c2C(=O)O)cc1 | -22%
26 | COCCNC(=O)CN(C(=O)CCC(=O)Nc1nccs1)c1ccccc1OC | -3%
27 | COC(=O)c1cc(CN2CCN(c3ccccc3)CC2)ccc1O | -5%
28 | CCc1cc2c(c(CC)n1)CCC(=O)N2Cc1ccc(-c2ccccc2-c2nn[nH]n2)cc1 | -3%
29 | Cc1c(Br)cccc1NC(=O)c1sccc1-n1cccc1 | -4%
30 | COc1ccccc1CN1CCC2(CC1)CCN(C(=O)c1c(C)noc1C)CC2 | -14%
31 | CC(C)(C)c1ccc(C(=O)N2CCN(CCNC(=O)C(=O)Nc3ccc(F)cc3)CC2)cc1 | -1%
32 | CN1c2ccccc2-c2nc3ccccc3n2C1c1ccccn1 (centres undefined) | -15%
33 | CCC12CN3CC(C)(CN(C1)C3c1c(C)[nH]c3ccccc13)C2=O (centres undefined) | 6%
34 | c1ccc(CCNc2nnnn2-c2ccccc2)cc1 | 1%
35 | Cc1noc(C)c1CSc1nnc2ccccn12 | -3%
36 | O=C(CN1C(=O)CSc2ncccc21)Nc1cccc(Cl)c1 | -18%
37 | O=C(c1ccc(NS(=O)(=O)c2ccc(F)cc2)cc1)N1CCN(c2ccccc2O)CC1 | 0%
38 | COc1ccccc1C(=O)Nc1ccc2nc3n(c(=O)c2c1)CCCC3 | 10%
39 | Cc1nnc(SCc2ccccc2Cl)n(N)c1=O | 7%
40 | CCCC[C@@H]1CCCO[C@@](C(=O)NCC2CC2)(C(F)(F)F)C1 | -18%
41 | C/C(=N\NC(=O)COc1cc(C)cc(C)c1)c1ccc(N2CCOCC2)cc1 | -25%
42 | CC1(C)Cc2cccc(OCC(=O)OCc3nnc(-c4ccccc4)o3)c2O1 | -14%
43 | C#CCOc1ccccc1C(N)=O | -18%
44 | Cc1ccc(NC(=O)CSc2nc3c(oc4ccccc43)c(=O)n2Cc2ccco2)cc1F | 2%
45 | Cc1ccccc1C(=O)Nc1sc2c(c1C(=O)N1CCC(C)CC1)CCCC2 | -16%
46 | Cc1ccc(C(=O)OCC(=O)Nc2ccccc2C(F)(F)F)cc1S(=O)(=O)N1CCOCC1 | 9%
47 | COC(=O)c1cc(NC(=O)c2cnc(SC)nc2-c2ccccc2)cc(C(=O)OC)c1 | 8%
48 | CC(=O)c1ccc(NC(=O)c2noc3c2CCC3)cc1 | -12%
49 | CCCCn1c2ccc(F)cc2c2nnc(SCCN3CCCCC3)nc21 | 24%&-20%
50 | Cc1ncc([N+](=O)[O-])n1S(=O)(=O)c1ccc2c(c1)OCCO2 | 11%
51 | NC(=O)C1(NC(=O)[C@@H]2CC3(CC(c4cccc(NC(=O)[C@@H]5CCC(=O)N5)c4)=NO3)CN2C(=O)c2ccccc2)CC1 (some centres undefined) | -11%
52 | CCCNS(=O)(=O)c1ccc(CCC(=O)NCCc2ccc(OC)c(OC)c2)cc1 | -12%
53 | CCCC(C)C(=O)Nc1ncc(S(=O)(=O)c2ccc([N+](=O)[O-])cc2)s1 (centres undefined) | -12%
54 | CCOC(=O)CC1Sc2ccccc2NC1=O (centres undefined) | 0%
55 | CCN(CC)C(=O)Oc1nnc(SC(C)C)n1-c1ccc(Cl)cc1 | -5%
56 | CCO[C@@H]1OC(C(=O)N2CCN(Cc3ccccc3)CC2)=C[C@H](c2ccccc2)[C@H]1CCCO | 3%
57 | O=C(NNc1c(F)c(F)cc(F)c1F)c1ccc(Cl)nc1 | 3%
58 | O=C(c1ccc(F)cc1F)N1CCN(S(=O)(=O)c2ccc3c(c2)OCCO3)CC1 | -9%
59 | O=C(NCC1CCCO1)c1ccc2c(=O)n(-c3ccc(F)cc3)c(=S)[nH]c2c1 (centres undefined) | -2%
60 | CCCN1CCc2c(sc3nc(SCC)n(-c4ccccc4)c(=O)c23)C1 | 7%

Further compounds:
cpd | compound | VDR inh
61 | COc1ccc(C2C(C(=O)O)CC(=O)N2C2CCCCC2)cc1 (centres undefined) | -2%
62 | CCOC(=O)Nc1cccc(NC(=O)c2ccccc2F)c1 | -21%
63 | Cc1cccc(OCCSc2nc3ccc(NC(=O)COc4ccccc4C)cc3s2)c1 | 4%
64 | C[C@@H]1CN([C@@H](C)CO)C(=O)c2cccc(NS(=O)(=O)c3cccs3)c2O[C@H]1CN(C)Cc1ccc(C(F)(F)F)cc1 | -25%
65 | CC(C)(C)NC(=O)C(c1ccc(-c2ccccc2)cc1)N(C[C@H]1CC[C@@H]([C@@H]2CC[C@H](CO)O2)O1)C(=O)c1ccc(-c2ccccc2)cc1 (some centres undefined) | 3%
66 | CCOC(=O)c1nn(-c2ccc(Cl)cc2)c(C)cc1=O | 3%
67 | CN(C)c1ccc(CC2C(=O)Nc3ccccc32)cc1 (centres undefined) | -13%
68 | CCOc1cc(N2CCOCC2)c(OCC)cc1NC(=O)CN1C(=O)NC(C)(C2CC2)C1=O (centres undefined) | -25%
69 | Cc1cccc(C(=O)OCC(=O)NCC(C)C)c1O | -8%
70 | CCOC(=O)[C@@H]1[C@H]2COc3ccc(Br)cc3[C@@H]2N2C(=O)N(c3ccccc3)C(=O)[C@]12C | -12%
71 | COc1ccc(N2CCN(C(=O)CNC(=O)c3cccc(Br)c3)CC2)cc1 | 0%
72 | Cc1ccsc1/C=N/NC(=O)C1CC(=O)N(c2ccc(F)cc2)C1 (centres undefined) | 3%
73 | Cc1ccc(NC(=O)CSc2nnc3n2CCCCC3)cc1 | 7%
74 | CC(=O)Nc1ccc(S(=O)(=O)Nc2nc3ccccc3nc2-n2ccc(=NC(=O)c3ccc(F)cc3)cc2)cc1 | -20%
75 | S=C(Nc1ccccc1Cl)N1CCOCC1 | -4%
76 | COCc1c(C)cc(C)c(/C=N/O)c1C | 7%
77 | CCOC(=O)c1c(-c2ccc(OC)cc2)csc1NC(=O)CCN1C(=O)c2ccccc2C1=O | -30%
78 | CCC(CC)c1nnc(NC(=O)CN2C(=O)C3C4C=CC(C4)C3C2=O)s1 (centres undefined) | -13%
79 | S=c1[nH]c2ccccc2n2c(=S)[nH]nc12 | 6%
80 | Cc1c(S(=O)(=O)N2CCCC2)c(=O)n(C)c(=O)n1C | 8%
81 | Cc1ccc(S(=O)(=O)N2CCN(C(=O)CSc3nncs3)CC2)cc1 | 7%
82 | Cc1cccc(C)c1NC(=O)N1CCC(C(=O)c2ccc(F)cc2)CC1 | -3%
83 | CCOC(=O)C1CCCN1C(=O)C1(NC(C)=O)CCCC1 (centres undefined) | -10%
84 | O=c1c2ccccc2nc(N/N=C/c2c(O)ccc3ccccc23)n1O | 10%
85 | CC(=O)Oc1c(/C=C(\C#N)C(N)=O)[nH]c2ccccc12 | -7%
86 | CCOC(=O)c1c(C)oc2nc(C)nc(NCCc3ccc(C)cc3)c12 | 6%
87 | COCCCn1c(-c2ccco2)nc2ccccc2c1=O | -7%
88 | CC(C)Cc1nnc(NC(=O)CCC(=O)N2CCN(C3CCCC3)CC2)s1 | -21%
89 | CC(/C=C/C=C/c1ccccc1)=N\NC(=O)c1cccnc1 | -10%
90 | CCOC(=O)N1CCN(S(=O)(=O)c2ccc(C)c(C)c2)CC1 | -2%
91 | CCc1ccc(CNC(=O)c2cc3cc4ccc(OC)cc4nc3o2)cc1 | -25%
92 | O=C(c1cc2ccccc2oc1=O)N1CCN(c2ncccn2)CC1 | 1%
93 | Cc1ccccc1NC(=O)c1c(NC(=O)Cc2ccccc2)sc2c1CCC2 | -11%
94 | CCOc1ccc(OCC(=O)N2CCC3(CC2)CC(=O)c2ccccc2O3)cc1 | 12%
95 | CC(O)CCCCn1c(=O)c2c(ncn2C)n(C)c1=O (centres undefined) | 0%
96 | COc1ccc(NC(=O)c2cnn(-c3ccccc3)c2C)cc1 | 7%
97 | O=C(CC1OC(=O)c2ccccc21)Nc1cc(S(=O)(=O)N2CCOCC2)ccc1OCC(F)(F)F (centres undefined) | -5%
98 | O=C(CN1CCOCC1)Nc1ccc(OCc2ccccc2)cc1 | -11%
99 | CO/N=C\CC(=O)Nc1ccc(F)cc1 | -10%
100 | CC1(OC(=O)C2CCCC2)C(=O)C=C2C=C(c3ccsc3)N(CCc3c[nH]c4ccccc34)C=C2C1=O (centres undefined) | ?
101 | N#Cc1ccc(C(=O)Nc2cc(-c3ccc(F)cc3)nn2-c2ccccc2)cc1 | -15%
102 | O=P(O)(O)CP(=O)(O)O | 0%
103 | Fc1ccccc1-c1nc(-c2ccc(-c3nn[nH]n3)cc2)no1 | -3%
104 | [O-][n+]1onc2c3ccnnc3ccc21 | 5%
105 | COc1ccccc1OCCNC(=O)c1ccc2c(c1)CCC2 | 1%

3 of the compounds above, field by field:
98: O=C(CN1CCOCC1)Nc1ccc(OCc2ccccc2)cc1
  VDR inh = -11%
99: CO/N=C\CC(=O)Nc1ccc(F)cc1
  VDR inh = -10%
100: CC1(OC(=O)C2CCCC2)C(=O)C=C2C=C(c3ccsc3)N(CCc3c[nH]c4ccccc34)C=C2C1=O (centres undefined)
  VDR inh = ?

New compounds follow:
cpd | compound | VDR inh
106 | O=C(COc1ccc([N+](=O)[O-])cc1)N/N=C/c1ccccn1 | 12%
107 | COC(=O)c1ccc(CSc2nnc3c(Cl)cc(Cl)cn23)o1 | -10%
108 | COc1ccc(-n2nnnc2C2CCN(S(=O)(=O)c3ccc(F)cc3Cl)CC2)cc1 | 14%
109 | CCOC(=O)N1CCN(C(=O)c2cc(-c3ccncc3)nc3ccccc23)CC1 | 6%
110 | CCCc1cc(=O)oc2cc(C)cc(OCC(=O)Nc3ccc(CN4CCOCC4)cc3)c12 | 8%
111 | CC(=O)C12OC(C)(C)OC1CC1C3CCC4=CC(=O)C=CC4(C)C3(F)C(O)CC12C (centres undefined) | 2%
112 | COc1ccc(S(=O)(=O)N2CCCC(C(=O)NCc3ccc4c(c3)OCO4)C2)cc1 (centres undefined) | -11%
113 | COc1ccccc1-n1c(SCC(=O)NC2CCCC2)nc2cccnc21 | -2%
114 | CNC(=O)COC(=O)c1cc2c(C)nn(-c3ccc(F)cc3)c2s1 | 5%
115 | CCOC(=O)C1=C(C)N(C[C@@H]2CC[C@@H](Cc3ccc(-c4ccccc4)cc3)O2)C(=O)NC1c1cccc([N+](=O)[O-])c1 (some centres undefined) | -6%
116 | COC(=O)C1=CN(c2ccc(F)c(F)c2)C=C(C(=O)OC)C1c1ccc([N+](=O)[O-])cc1 | -7%
117 | Cc1nc2ccccc2c(=O)n1CCCn1ccnc1 | -12%
118 | O=C(NC1CC1)C1=C[C@@H](C2CCCCC2)C[C@@H](OCCCCO)O1 | 15%
119 | O=C(NCCN1CCOCC1)c1cc(-c2cccc(O)c2)on1 | 13%
120 | COc1ccc(C2=NN(C(=O)c3cccs3)C(c3ccccc3OC)C2)cc1OC (centres undefined) | -4%
121 | COc1ccc(OC)c(NC(=O)CN2CCCN(Cc3cc(C)ccc3C)S2(=O)=O)c1 | -6%
122 | O=C(/C=C/c1ccccc1O)c1ccc(Cl)cc1 | 35µM*
123 | C=CCNC(=O)c1c(Cl)cnn1-c1ccc(C)cc1 | -5%
124 | CC(C)(NC(=O)N1CCOCC1)c1cccc(C(C)(C)NC(=O)N2CCOCC2)c1 | -20%
125 | COc1ccc2c(c1)N(C)/C(=C1/SC(=NCc3ccccc3)N(c3ccccc3)C1=O)S2 | 2%
126 | N=C1/C(=C\c2coc3ccc(O)cc3c2=O)C(=O)N=C2SC=CN12 | 5%
127 | O=S(=O)(c1ccc(-c2ccccc2)cc1)N1CCCCC1 | -3%
128 | O=C1CN(C(=O)COC(=O)c2oc3ccccc3c2COc2ccccc2)c2ccccc2N1 | -8%
129 | COC(=O)c1cn(CC(=O)Nc2ccc(OC)cc2)c2ccccc12 | -2%
